Compound activity deposited in PubChem BioAssay by Southern Research Institute.
motility – Vibrio cholerae motility inhibitors, OD read-out (AID 588778). one-dose inhibition, %; IC50 in µg/mL for titrated hits. 10,000 tested, under 10 active. Vibrio cholerae motility, OD read-out; higher % means a stronger effect; test concentration not given here; primary cut-off and reference of the scale not given here; strong numbers were not always called active; in the data active means confirmed in a dose series; inconclusive means primary hit not retested
motility viability – recorded beside motility, whose call it bears; inhibition, %; measured here: bacterial viability at 10 ug/mL;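 higher means fewer living bacteria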
Active calls of the source: *; u = inconclusive; x = not tested or not shown. The list is partial. The share of hits here may be higher or lower than overall.

SMILES	motility	motility viability
CC(=O)Nc1c(C)ccc(CNC(=O)COc2ccc(F)cc2)c1C	-18%	-5
O=C(Nc1ccc2c(c1)Cc1ccccc1-2)c1ccc2c(c1)OCO2	11%	-4
COc1ccc(O)c(C(=O)CC(=O)c2ccc(F)cc2)c1	91%	98
COC(=O)c1cn(C(=O)c2ccc(Br)o2)c2ccccc12	1%	-6
Cc1cc(O)c(C(C)C)cc1NC(=O)c1cc(C(C)(C)C)oc1C	7%	-1
CCn1ccc(CNC(=O)Nc2ccc(Cl)cc2Cl)n1	2%	-2
COc1cc2c(cc1OC)-c1nnc(-c3ccc(Br)o3)n1C(C)(C)C2	10%	2
COc1cc(C=O)cc(Br)c1OC/C=C/c1ccccc1	-4%	1
CCNC(=S)N1CCN(CCN2C(=O)c3cccc4cccc(c34)C2=O)CC1	13%	4
Clc1ccccc1OCc1nn2c(COc3ccccc3)nnc2s1	0%	-9
CC(=O)OC(C(=O)n1nc(C)cc1C)c1ccccc1 (stereo unspecified)	-8%	-3
O=C(NCc1ccc(F)cc1)C(=O)Nc1cccc(C(F)(F)F)c1	-4%	-7
O=C(Nc1ccccc1Cl)c1cc([N+](=O)[O-])ccc1O	25%	4
COC(=O)c1cc(Br)cc([N+](=O)[O-])c1O	12%	4
O=C(Nc1cc2nn(-c3ccccc3)nc2cc1Cl)c1cccnc1	-6%	-5
Cc1ccccc1OCC(=O)NC(=S)Nc1ccc(I)c(C)n1	-3%	-3
O=C1OC(N2CCN(Cc3ccc4c(c3)OCO4)CC2)c2ccccc21 (stereo unspecified)	9%	4
COc1ccc(Cc2nc3ccccc3[nH]2)cc1OC	3%	26
O=C(CSc1nnc(C23CC4CC(CC(C4)C2)C3)o1)Nc1ccc(N2CCOCC2)c(Cl)c1	-26%	-12
CC(=O)c1ccc2c3c(ccc(O)c13)CC2	49%	10
O=C(Nc1ccc(Cl)cc1)Nc1nnc(-c2ccccc2)o1	2%	20
Cc1cccc(N2C(=O)CSC2=S)c1C	-2%	-4
Cc1cc(C)nc(NC(=O)C2CC=CCC2C(=O)O)c1 (stereo unspecified)	-16%	-6
Cc1cccc(N2C(=O)CC(N3CCN(c4ccccc4O)CC3)C2=O)c1 (stereo unspecified)	0%	-3
O=C(Oc1ccc(/C=N/O)cc1)c1ccc(Br)cc1	-3%	-5
O=C(CCCN1CCOC(c2ccccc2)C1)c1ccc(F)cc1 (stereo unspecified)	13%	1
CN1CCN(NC(=O)Nc2ccc3c(c2)OCO3)CC1	7%	7
COC(=O)c1ccccc1NC(=O)Cn1c(=O)oc2ccc(Cl)cc21	-8%	-11
O=C(CCC1CCCC1)N1CCc2cc(Br)ccc21	12%	-2
CCOC(=O)c1ccc(NC(=O)N2CCc3ccccc32)cc1	2%	4
O=C(c1cccc(F)c1)N1CCN(c2cnn(-c3ccccc3)c(=O)c2Br)CC1	13%	6
O=[N+]([O-])c1c(-c2ccccc2)c2cc(Cl)ccc2n2cnnc12	8%	0
O=C(Cc1c(F)cccc1Cl)NCc1ccc2c(c1)OCO2	40%	8
COc1cc(-c2ccc(NC(=O)CN3CCCCC3)c(OC)c2)ccc1NC(=O)CN1CCCCC1	-4%	-3
CCON1C(=O)NC(c2cc(F)ccc2C)(C(F)(F)F)C1=O (stereo unspecified)	11%	-1
CCN(C(C)=O)c1nnc(CSc2nc3ccccc3s2)s1	-1%	-11
O=S(=O)(/N=C(\N=C(Nc1ccccc1)Nc1ccccc1)c1ccccc1)c1cccs1	-1%	-4
COc1ccccc1N1CCN(C(=O)CN(c2cccc(C(C)=O)c2)S(C)(=O)=O)CC1	-3%	2
Cc1noc(NS(=O)(=O)c2ccc(NC(=O)CSc3nc(-c4ccccc4)c(-c4ccccc4)o3)cc2)c1C	9%	5
Cc1nnc(SCC(=O)NC2CCCC2)s1	-9%	-4

Some of the entries above, set out differently:
molecule,motility,motility viability
O=S(=O)(/N=C(\N=C(Nc1ccccc1)Nc1ccccc1)c1ccccc1)c1cccs1,-1%,-4
COc1ccccc1N1CCN(C(=O)CN(c2cccc(C(C)=O)c2)S(C)(=O)=O)CC1,-3%,2
Cc1noc(NS(=O)(=O)c2ccc(NC(=O)CSc3nc(-c4ccccc4)c(-c4ccccc4)o3)cc2)c1C,9%,5
Cc1nnc(SCC(=O)NC2CCCC2)s1,-9%,-4

(list continues)
SMILES	motility	motility viability
Cc1cc(C)nc(SC(C)C(=O)Nc2ccc(Cl)c(Cl)c2)n1 (stereo unspecified)	13%	0
CCc1c(C)sc(NC(=O)c2cnn3cc(Br)cnc23)c1C#N	-10%	-6
COC(C(=O)NCc1cccnc1)c1ccccc1 (stereo unspecified)	-4%	-1
CCOc1ccc(CC2SC(N)=NC2=O)cc1 (stereo unspecified)	-9%	-7
CSC1=NC2(CCCCC2)C2=C(CCCC2)N1	10%	1
O=C(NCCN1CCOCC1)C1CCN(Cc2cccnc2)CC1	-1%	-1
OC(Cn1nnc2ccccc21)Cn1c2ccc(Cl)cc2c2cc(Cl)ccc21 (stereo unspecified)	-5%	-8
Cc1ccccc1NC(=S)NC1CCCC1	-4%	-2
O=C1NN=C2C1=NC1(CCCCC1)Cc1ccccc12	14%	5
C/C(N)=C(/C#N)C(NC(=O)C1CCCCC1)(C(F)(F)F)C(F)(F)F	16%	30
CCOC(=O)C1=C(C)NC(=O)NC1c1cccs1 (stereo unspecified)	-3%	-2
CC(=O)C(Cc1ccccc1)(Cc1ccccc1)C(C)=O	6%	1
COC(=O)C(CC(C)C)NS(=O)(=O)c1ccc(OC)cc1 (stereo unspecified)	-6%	-14
CCOc1ccc(Nc2oc(-c3ccco3)nc2C#N)cc1	5%	20
C=C1C2(C(=O)Nc3c(C)cc(C)cc3[N+](=O)[O-])CCC(C2)C1(C)C (stereo unspecified)	1%	-2
CCCCOc1ccc(-c2nc(SCC(N)=O)n[nH]2)cc1	1%	2
Cc1c(NC(=O)c2sc3ccccc3c2Cl)c(=O)n(-c2ccccc2)n1C	-15%	-3
CCOC(=O)c1ccc(NC(=S)Nc2cccc(Cl)c2C)cc1	-3%	-5
Cc1c(Cl)ccc2c(C(=O)Nc3ccncc3)cc(-c3ccccn3)nc12	0%	5
COCc1nnc(NC(=O)c2sc3ccccc3c2Cl)s1	5%	-1
O=C(CSc1ccc(Nc2ccc(Cl)cc2)nn1)Nc1ccc(Cl)cc1	4%	-1
O=S(=O)(/N=C(\Nc1ccc(Br)cc1)C(F)(F)F)c1ccccc1	-9%	-3
Cc1ccc(S(=O)(=O)NCCC2=CCCCC2)cc1C(N)=O	8%	23
O=C(CSC1=NC(=O)C(c2ccccc2)C(=O)N1)Nc1cccc(Cl)c1 (stereo unspecified)	1%	1
CC(C)c1ccccc1OCC(=O)N1CCc2ccccc21	-1%	-6
COc1ccc(C2=NC(SC)C3=C(CC(C)(C)OC3)N2)cc1 (stereo unspecified)	0%	-7
CCN(CC)S(=O)(=O)c1cccc(C(=O)N2CC(O)CC2C(=O)O)c1 (stereo unspecified)	-3%	-2
Cc1ccc2cccc(S(=O)(=O)NC3CCS(=O)(=O)C3)c2n1 (stereo unspecified)	7%	31
O=C(COc1ccc([N+](=O)[O-])cc1)NC(C(=O)O)C(O)c1ccccc1 (stereo unspecified)	-2%	-1
Cn1c2ccccc2c2ccc(CC(=S)N3CCOCC3)cc21	-4%	-3
N#Cc1ccc(Oc2cccc3cccnc23)cc1C#N	-9%	-2
CC12CN(C(=O)c3ccccc3)CC(c3ccccc3)(CN(C(=O)c3ccccc3)C1)C2=O	-8%	0
O=C(Cc1ccccc1)NCC(=O)OCc1ccc(I)cc1	-3%	6
COC(=O)Nc1sc(C)c(C)c1C(=O)Nc1ccccc1OC	-5%	-6
Cc1nc(NC(=O)c2cccc(Cl)c2Cl)ccc1I	5%	11
O=c1[nH]cc(COCc2ccccc2)c(=O)[nH]1	16%	32
O=C(O)CS(=O)(=O)c1ccccc1C(=O)O	16%	0
COC(=O)C1CCN(C(=O)Nc2cccc(Cl)c2)CC1	-1%	1
Cc1nnc(SCc2cnc(-c3ccccc3)o2)[nH]c1=O	2%	5
Cc1ccc(C)c(OCC(=O)c2ccc(Br)cc2)c1	-31%	-11
O=C(Cn1nnc2sc3c(c2c1=O)CCCC3)OCc1ccccc1	3%	-3
CCCN(CCC)c1nc(OC)nc(OC)n1	-14%	2
O=C(Nc1n[nH]c(C2CCCCC2)n1)C1CCCCC1	11%	10
O=C(Nc1ccc2c(c1)OCCO2)C(Cl)Cl	19%	10
Cc1nc(Oc2ccc3c(c2)OCO3)c2cc(-c3ccccc3)sc2n1	6%	0
N#CC1(c2ccccc2)CCN(C2CC(=O)N(c3cccc(F)c3)C2=O)CC1 (stereo unspecified)	13%	-6
O=C(Nc1cccnc1)C1CCCN1S(=O)(=O)c1ccc(Cl)c(Cl)c1 (stereo unspecified)	9%	-3
COc1ccc(CCCC(=O)NC2CCCCC2C)cc1C (stereo unspecified)	11%	24
COc1ccc(CCNC(=S)NCc2ccccn2)cc1OC	-5%	-13
CCCNC(=O)Nc1ccc(I)cn1	-7%	-1

Remaining list, next part
SMILES	motility	motility viability
O=C(Nc1nccs1)c1ccc(CSc2ccccc2)o1	33%	9
Cc1cc(OC(=O)C(c2ccccc2)N2C(=O)C3C4C=CC(C5CC45)C3C2=O)ccc1Cl (stereo unspecified)	8%	6
CCCc1cc(=O)[nH]c(SCC(=O)NC2CCCCC2)n1	6%	-2
Cc1cc(C(=O)Nc2ccon2)c(C)o1	25%	16
c1ccc(-c2nc3ccccc3nc2-c2ccccn2)nc1	-12%	-3
O=C(CSc1ccccc1)Nc1cc(Cl)c(O)c(Cl)c1	u	x
CCCc1onc2c1C(=O)C(C(=O)OC)C(C)(C)C2 (stereo unspecified)	6%	2
CC(C)(C)c1ccc(C(=O)NC2(C(F)(F)F)N=C3SCCN3C2=O)cc1 (stereo unspecified)	-10%	-3
S=c1nc(C2COc3ccccc3O2)[nH][nH]1 (stereo unspecified)	-6%	-7
CCOC(=O)c1cc(CC)sc1NC(=O)CCn1c(=O)oc2ccccc21	25%	21
CC(=O)C1=C(C)NC(=S)NC1/C=C/c1ccccc1 (stereo unspecified)	-13%	-7
COC(=O)c1sccc1NC(=O)c1cc(C)oc1C	7%	-2
CN1CCC(OC(=O)c2ccc(I)o2)CC1	8%	2
Cc1ccc(C(=O)N/C(N)=N/c2nc3ccccc3s2)cc1	12%	-1
Cc1nn(S(=O)(=O)N2CCOCC2)c(C)c1Br	4%	-3
O=C1CCC([N+](=O)[O-])C(c2ccccc2F)N1 (stereo unspecified)	-1%	-5
Cc1cc(C(F)(F)F)nn1CC(=O)NCc1ccco1	6%	7
COC(=O)N1CC(c2ccccc2)CC1=O (stereo unspecified)	17%	-5
Clc1ccc(CNCc2ccco2)cc1	29%	9
O=C(OCc1c(Cl)cccc1Cl)c1ccncc1	11%	35

The list goes on, overlapping the part above by 6 compounds.
SMILES	motility	motility viability
Cc1nn(S(=O)(=O)N2CCOCC2)c(C)c1Br	4%	-3
O=C1CCC([N+](=O)[O-])C(c2ccccc2F)N1 (stereo unspecified)	-1%	-5
Cc1cc(C(F)(F)F)nn1CC(=O)NCc1ccco1	6%	7
COC(=O)N1CC(c2ccccc2)CC1=O (stereo unspecified)	17%	-5
Clc1ccc(CNCc2ccco2)cc1	29%	9
O=C(OCc1c(Cl)cccc1Cl)c1ccncc1	11%	35
O=C(CN1C(=O)c2ccccc2C1=O)NC(=S)Nc1ccccc1	-16%	-7
Cc1cc(C)nc(/N=C(/N)Nc2ccc(OCc3ccccc3)cc2)n1	131%	40
O=C(Cc1cccc2ccccc12)NCC1(c2ccccc2)CCOCC1	11%	-1
Cc1nnc(Nc2ccc(C(=O)Nc3c(Cl)cccc3Cl)cc2)c2ccccc12	-11%	-8
Cc1nn(C(=O)c2nn(C)cc2Cl)c(C)c1I	-2%	-2
O=C(O)CSc1nc(-c2cccs2)cc(C(F)(F)F)n1	-13%	4
S=c1nc2ccccc2c2nc(-c3cccnc3)[nH]n12	2%	-1
O=C1Nc2ccc(Br)cc2C12NCCc1c2[nH]c2ccccc12 (stereo unspecified)	-4%	-1
CC(C)(C)c1cc(Cl)c(O)c(NC(=S)NC(=O)c2cncc(Br)c2)c1	-8%	-4
CCCc1nc(NC(C)=O)c(C#N)c(-c2ccco2)c1CC	6%	-2
Cn1c(SCC(=O)c2ccc3c(c2)OCO3)nnc1-c1ccco1	13%	1
O=C(O)c1cccc(NC(=O)c2ccccc2NC(=O)c2ccccc2Br)c1	-6%	-4
COC(=O)c1oc2c(c1C)C1(CCC2)SCCS1	15%	5
CCOC(=O)c1c(NC(=O)c2sc3nc(C)c(C(C)=O)cc3c2N)sc2c1CCCC2	-3%	-1
O=C(Nc1nnc(C(F)(F)F)s1)c1cc(Br)ccc1Cl	31%	2
CN(Cc1ccccc1)S(=O)(=O)c1ccc(O)c(C(=O)O)c1	-1%	-6
COc1cccc(-c2nc3c(Cl)cc(Cl)cc3c(=O)o2)c1	-11%	6
Cc1ccc(-c2nc3ccccc3o2)cc1NC(=O)CN1C(=O)c2ccccc2C1=O	6%	4
CCOC(=O)N1CCN(C(=S)NCc2ccco2)CC1	5%	-2
Cc1ccc(C(C)C)c(OCCNC(=O)c2ccccc2SCc2ccccc2)c1	-4%	-7
CC(C)n1[nH]c(=O)c2c1NC(=O)CSC21CCCCC1	1%	-7
CC(C)CN(CC(C)C)C(=O)Nc1cccc([N+](=O)[O-])c1	-6%	-2
